From PubChem BioAssay
Menin MLL FP FL: displaces fluorescein MLL peptide from human menin | FP activity change, % at 61.4 µM | Fluorescence polarization, fluorescein-MLL peptide displacement from menin | 290,000 tested, under 10 active; inconclusive = falling polarisation curve, or a change in total fluorescence; inactive = total fluorescence flat and polarisation flat or rising; no compound was filed as active; the % refers to the polarisation; negative = inhibition;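 note: % of control where 0% means no effect; inhibitors lower the polarisation; unlabelled MLL peptide was the positive control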
gsp antag: antagonists of gsp mutant (McCune-Albright syndrome). hit rate 0.4% among 340,000. Potency, µM (titrated, usually from 76.9 µM), for the others: at the highest dose activity change, negative = inhibition, hits mostly inhibitors. gsp-mutant cells, cAMP HTRF, 30 min; control for the full effect not named in the record; active = falling curve of any shape with a large fitted effect; inconclusive = falling curve, mostly with a smaller effect; inactive = flat or rising curve; cell line not stated here;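 note: intracellular cAMP measured with PDE inhibitor Ro 20-1724 present during compound exposure; potency is the fitted concentration of half-maximal effect; % is set by controls: 0 for no effect and ±100 for the full control effect; nearly all actives have a fitted effect of over 65% in size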
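Cells, 2000/well, grown 16–24 h in DMEM 10% FBS with 0.5 mg/ml G418, then compounds plus […] (300 uM addition stock), 30 min at 37C. cAMP read by HTRF (cAMP-d2 and anti-cAMP antibody-K in lysis buffer) after 30 min RT.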
TRPML1 blocker: human mucolipin-1 channel inhibition; Q9GZU1; TRPML1-inducible cells, Ca2+ dye fluorescence, FDSS; active compounds read low; inhibition of EC80 agonist-evoked calcium signal; activity change, negative = inhibition, % (test concentration not listed); AID 624415; hit rate 0.02% among 390,000; in the data active means activity change below about -50%; inconclusive means about -30% to -50%; inactive means above about -30%;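 note: stimulus is agonist 54-4 at its EC80 concentration; % is set by controls: 0 for no effect and ±100 for the full control effect; compound concentration not given in the record; the text of the record puts the active cut at -80%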
Target sequence (Q9GZU1 whole entry, looked up): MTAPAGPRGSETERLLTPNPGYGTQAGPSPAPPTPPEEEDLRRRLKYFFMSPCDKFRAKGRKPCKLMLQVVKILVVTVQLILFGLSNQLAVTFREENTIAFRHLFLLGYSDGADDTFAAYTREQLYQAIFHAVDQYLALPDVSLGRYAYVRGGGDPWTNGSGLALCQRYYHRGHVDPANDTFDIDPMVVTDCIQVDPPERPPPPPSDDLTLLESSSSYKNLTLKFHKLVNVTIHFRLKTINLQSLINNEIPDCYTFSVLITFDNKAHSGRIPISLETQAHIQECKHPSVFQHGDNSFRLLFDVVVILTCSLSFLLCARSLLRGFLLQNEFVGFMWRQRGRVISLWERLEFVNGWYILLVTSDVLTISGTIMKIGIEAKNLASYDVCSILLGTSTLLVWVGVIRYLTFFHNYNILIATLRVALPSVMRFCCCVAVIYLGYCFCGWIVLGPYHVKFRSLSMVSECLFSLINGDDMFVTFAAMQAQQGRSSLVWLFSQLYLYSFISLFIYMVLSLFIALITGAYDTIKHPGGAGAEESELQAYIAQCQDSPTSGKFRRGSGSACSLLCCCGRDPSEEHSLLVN
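Tet-induced TRPML1-DL cells loaded with Ca8 no-wash calcium dye were read kinetically on FDSS. Compound addition was followed by EC80 agonist 54-4 (4 uM final); inhibition was read over 110 s.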
ClpP mod: qHTS Assay for Activators of ClpP. AID 651965, 2013. purified B. subtilis ClpP, FRET peptide cleavage, 20 min. hit rate 1.9% among 340,000. ATP-dependent Clp protease proteolytic subunit (Bacillus subtilis (strain 168)), P80244. Potency, µM (series often up to 57.5 µM), without a hit: at the highest dose activity change, negative = active; active = well fitted falling curve with a large enough effect; inconclusive = small, poorly fitted or top-dose-only effect; inactive = no such curve, though single readings can be large or run the other way; note: potency is the fitted concentration of half-maximal effect; the source files actives as falling curves though it sought activators and does not explain the sign; nearly all actives have a fitted effect of over 65% in size; many hits overshoot -100%
Target sequence (P80244 whole entry, looked up): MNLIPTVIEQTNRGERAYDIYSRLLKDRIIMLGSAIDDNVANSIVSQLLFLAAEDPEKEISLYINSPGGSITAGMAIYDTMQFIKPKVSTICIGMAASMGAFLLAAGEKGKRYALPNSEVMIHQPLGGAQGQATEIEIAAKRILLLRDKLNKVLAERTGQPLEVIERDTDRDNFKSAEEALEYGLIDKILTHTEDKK
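Buffer: 100 mM Tris/HCl pH8, 100 mM KCl, 0.05% low protease BSA, 2.5% glycerol, 0.01% Tween-20. ClpP 10 microg/mL final; 20 min RT; delta FRET normalized to ADEP and DMSO controls.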
gsp agonist: agonists of gsp mutant (McCune-Albright syndrome); gsp mutant cells, cAMP HTRF, 30 min; control for the full effect not named in the record; hit rate 0.13% among 340,000; Potency, µM (top dose mostly 76.9 µM), for the others: top-dose activation (cAMP increase), most hits filed as activators; AID 624287; active = well fitted activation curve with a large enough effect; inconclusive = small, poorly fitted or top-dose-only effect, or another doubt; inactive = no such curve, though single readings can be large or run the other way; cell line not stated here;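 note: phosphodiesterase inhibitor Ro 20-1724 added with compounds to block cAMP breakdown; potency is the fitted concentration of half-maximal effect; nearly all actives have a fitted effect of over 60% in size; about a fifth of the inactives were tested at one dose only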
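Cells stably selected in G418 were plated at 2000/well, grown 16-24 hr, then given compounds in DMSO with the PDE inhibitor […] (300 uM solution added) for 30 min at 37C; cAMP was read by HTRF.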
TRPML1 agonist: activates the human TRPML1 channel; activation, % (test concentration not listed); TRPML1-expressing cells, Ca2+ dye fluorescence, FDSS; host cell line not named in the record; reference of the full effect not given here; hit rate 0.12% among 410,000; Q9GZU1; AID 624414; in the data active = activation above about 50%; inconclusive = about 30% to 50%; inactive = below about 30%; note: 0% is about no effect; the text of the record puts the active cut at 80%
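Calcium fluorescence on an FDSS kinetic reader gave the read-out. Tet-induced TRPML1-DL cells were plated overnight, dye-loaded (Ca8 with quencher, 45-90 min, room temperature, dark), then read 110 s after compound addition, and again 110 s after 4uM final 54-4 (EC80).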
Active calls of the source: *; ? = inconclusive; . = not tested or not shown; [ ] = remark or other dose.

SMILES | Menin MLL FP FL | gsp antag | TRPML1 blocker | ClpP mod | gsp agonist | TRPML1 agonist
O=C(CN1C(=O)NC2(CCOc3ccccc32)C1=O)c1ccc[nH]1 (stereo unspecified) | . | -17.5% | -13.1 | -1.1% | -36.3% | -0.3
O=C(OCCOc1ccc(Cl)cc1)c1cc(S(=O)(=O)N2CCCCC2)ccc1N1CCOCC1 | . | -5.9% | 35.6 | ? | 8.5% | 1.3
Cc1cc(Br)cc(/C=N/NC(=O)c2ccc3c(c2)OCO3)c1O | 11.9 | 3.3% | . | -0.8% | -10.3% | .
COCCCNC(=O)Cn1c(=O)n(-c2cccc(C)c2)c(=O)c2c1c1cc(C)ccc1n2C | . | . | -13.7 | 4.5% | . | -1.1
CSc1cccc(CN2CCN(CCC(C)C)C(CCO)C2)c1 (stereo unspecified) | 1.8 | 14.9% | 4.2 | . | -15.8% | -0.3
Cc1ccc([C@H]2N[C@]3(CCCN(Cc4ccc(C(F)(F)F)cc4)C3=O)[C@H]3C(=O)N(C)C(=O)[C@@H]23)cc1 | . | . | 5.8 | 0.5% | ? | 0.2
O=C(CSc1nnc(N2CCOCC2)n1-c1cccc(F)c1)N1CCN(c2ccccn2)CC1 | . | 6.9% | 22.6 | -14.9% | -42.8%[inhibitor] | 2.4
O=c1cc(Cn2ccnc2)c2cc(O)ccc2o1 | -1.9 | 18.0% | -13.6 | -0.4% | 20.1% | 0.1
CCCCCCCCCCOC(=O)Cn1c(COc2cccc(OC)c2)[n+](C)c2ccccc21 | 3.5 | 5.3% | 39.0 | 0.3% | 12.2% | -0.7
O=S(=O)(Nc1ccc2cn[nH]c2c1)c1ccc(Cl)cc1 | 3.6 | -14.2% | 1.0 | 0.7% | -9.2% | -0.6
COc1ccc(NC(=O)COc2ccc(/C=C/c3cc[n+](C)cc3)cc2OC)cc1 | 0.4 | -24.6% | 9.3 | . | 0.1%[15.4 µM] | -0.4
CCC(OC(=O)c1cccs1)C(=O)NCc1ccc(C)cc1 (stereo unspecified) | 3.9 | 10.1% | -10.7 | . | ? | -0.9
O=C(COC(=O)C1CCN(S(=O)(=O)c2ccc3c(c2)OCCO3)CC1)Nc1cc(C(F)(F)F)ccc1Cl | 2.3 | 1.3% | -22.6 | -2.3% | 1.8% | 0.8
O=C(CSc1ccccc1)NC1CCCCCCC1 | -2.4 | -8.4% | 3.5 | -2.7% | -10.8% | 0.2
COc1ccc(CCNC(=O)CN2C(=O)CCSc3ccccc32)c(OC)c1 | -3.0 | -14.8% | 1.3 | . | 2.2% | -0.8
CC/C(=N\NC(=S)Nc1ccc(OC)cc1)c1ccc(OC(F)F)cc1 | 4.0 | -2.6% | 8.9 | -0.1% | 5.0%[15.4 µM] | -0.4
O=C(CSc1nc2ccccc2s1)N1N=C(c2cccs2)CC1c1ccc(F)cc1 (stereo unspecified) | 0.9 | 8.5% | 23.4 | 28.2µM* | 12.3% | 1.9
COc1ccc(NC(=S)NCC(O)c2ccccc2)c(OC)c1 (stereo unspecified) | 3.9 | 6.1% | -11.7 | 0.7% | -22.9% | -0.2
CCOC(=O)COc1cc(N2C(=O)CSCC2=O)c(Cl)cc1Cl | 2.7 | -7.2% | 33.2 | 1.6% | -31.5%[inhibitor] | -0.1
Cc1ccc(N(CC(=O)NCC2CCCO2)S(=O)(=O)c2ccccc2)c(C)c1 (stereo unspecified) | -2.6 | . | 8.5 | . | 1.8%[15.4 µM] | -0.2
Clc1ccccc1-c1nnc2sc(-c3cccs3)nn12 | 2.2 | 2.3% | 25.4 | -4.7% | 0.7% | 2.9
Cc1cc[n+](CCC(=O)O)c2ccccc12 | 1.3 | 3.8% | 1.0 | -29.7% | ? | -0.5
CC(C)c1ccc(S(=O)(=O)N2CCN(C(=O)C3CCN(C(=O)c4ccc(F)cc4)CC3)CC2)cc1 | . | -12.7% | 7.9 | . | -13.9%[15.4 µM] | 0.3
CC1=NC(C)(C)CC2CCC(O)C12 (stereo unspecified) | . | 9.9% | 43.8 | 0.3% | 23.5% | -0.4
COC(=O)c1ccc(/C=N/NC(=O)c2ccccc2Cl)cc1 | 3.7 | 4.3% | 2.1 | -5.7% | 0.7% | -0.2
Cn1nccc1C(=O)N1CCCC(Nc2ccc(F)cc2)C1 (stereo unspecified) | -2.0 | 1.2% | -13.8 | -1.7% | 16.2% | -0.1
CCCC(O)(CCN(C)C)c1ccc(OC)cc1 (stereo unspecified) | -0.2 | 3.3% | -27.2 | -1.7% | 25.0% | -0.3
CCNc1ccc(S(=O)(=O)N(C)C)cc1NCC(=O)Nc1ccccc1F | 3.3 | 0.2% | -18.0 | 1.1% | 3.4%[15.4 µM] | -0.4
CN1CCCC(OC(=O)COc2ccccc2)C1 (stereo unspecified) | 1.8 | 8.2% | 39.9 | -2.1% | -0.1% | -0.1
Nc1[nH]n(-c2ccccc2)c(=O)c1N=Nc1ccccc1[N+](=O)[O-] | -0.9 | 14.7% | -3.4 | -1.3% | -41.7%[inhibitor] | -0.5
C[N+]1(C)CCCC(OC(=O)C(O)(c2ccccc2)c2ccccc2)C1 (stereo unspecified) | 3.4 | 1.8% | -5.9 | -1.0% | . | -0.6
CCN1C(=O)/C(=C/N(C)C)c2ccccc21 | 2.3 | 4.9% | -7.3 | -5.3% | 24.2% | 0.1
O=C(NCCCCCCOC1=NS(=O)(=O)c2ccccc21)C(=O)Nc1ccccc1 | 2.7 | -19.8% | 21.2 | 1.1% | 0.4% | 3.4
COc1ccc(NC(=O)CSc2oc(-c3ccco3)nc2S(=O)(=O)c2ccc(C)cc2)c(OC)c1 | . | . | 1.1 | -0.2% | . | -0.8
CCCCn1c(N)c(N(CC(C)C)C(=O)CCS(=O)(=O)c2ccc(C)cc2)c(=O)[nH]c1=O | . | -2.9% | -8.7 | 0.8% | -21.7% | -0.5
CN(Cc1ccncn1)C(=O)CC1C(=O)NCCN1Cc1cccc(Oc2ccccc2)c1 (stereo unspecified) | -15.0 | 5.4% | -12.0 | . | -2.2% | -0.1
Cc1cccc(CSc2nc3ccncc3n2Cc2ccc(C(=O)O)cc2)c1 | . | . | -12.6 | -15.8% | . | 1.2
COc1cccc(C(=O)NC(=O)Nc2nc(C)cc(C(F)(F)F)n2)c1 | . | 12.8% | 18.7 | 0.0% | 5.7% | 1.4
CN(CC(=O)Nc1ccc2c(c1)CCC2)CC(=O)Nc1ccccc1Br | 0.7 | -21.3% | -5.2 | 0.6% | 8.9% | 1.0
O=C(NCC1CCCO1)c1cc(-c2ccco2)nc2ccccc12 (stereo unspecified) | 1.2 | 13.7% | 17.5 | ? | 0.9% | -0.7
CC1CCN(C(=O)CSc2nnc(-c3ccc(S(=O)(=O)N4CCOCC4)cc3)n2C)CC1 | -0.5 | -3.1% | 19.5 | -26.5% | -26.8% | 0.2
CSCCC(=O)N1CCC(n2nccc2NC(=O)CCCc2ccccc2)CC1 | . | -1.9% | 21.2 | 2.1% | -0.2% | 6.3
COc1ccc(/C=C/c2c(-c3ccc(OC)cc3)oc3ccc(-c4ccc(OC)cc4)cc23)cc1 | -6.8 | 8.2% | -26.6 | 3.8% | ? | -0.5
COc1ccc(/C=C2\SC(=S)N(CCCC(=O)N3CCCCC3CCO)C2=O)cc1 (stereo unspecified) | . | ? | 2.1 | -1.0% | -16.5% | 0.6
N#CCC(=O)Nc1ccc(C(=O)OCC(=O)NCCCc2ccccc2)cc1 | 8.6 | -6.5% | -0.4 | 0.3% | 1.1% | 0.2
O=C1c2cc([N+](=O)[O-])ccc2-c2cc(Cl)c(NC(=O)C(F)(F)F)cc21 | . | -34.2% | -13.6 | 0.9% | -48.2%[inhibitor] | 0.4
Cc1ccccc1-c1csc(C(C)(O)c2ccc(F)c(F)c2)n1 (stereo unspecified) | . | . | 10.3 | -2.5% | . | -0.4
FC(F)(F)c1cnc(NNC(=S)Nc2cccnc2)c(Cl)c1 | -1.0 | 0.5% | 4.2 | -0.9% | -7.4% | 0.5
Cc1ccccc1OCC(=O)Nc1ccccc1-c1ccccc1NC(=O)COc1ccccc1C | 2.3 | -4.0% | -7.1 | -2.1% | -3.4% | 1.9
O=C(Cc1ccc([N+](=O)[O-])cc1)c1ccccc1 | . | -7.9% | 39.9 | 0.8% | -20.2% | 1.5

New compounds follow.
SMILES | Menin MLL FP FL | gsp antag | TRPML1 blocker | ClpP mod | gsp agonist | TRPML1 agonist
O=c1nc2n(c3sc4c(c13)CCCC4)C(CBr)CS2 (stereo unspecified) | 2.0 | -6.5% | 3.7 | -1.4% | 30.0% | 0.4
CC(C)N(C(=O)CN1CCN(S(=O)(=O)c2ccc(Br)s2)CC1)C(C)C | . | -8.1% | 12.5 | 1.6% | -11.7% | 0.9
CSc1nc2ccc(S(=O)(=O)N(C)C)cc2s1 | -1.2 | 7.8% | 45.8 | -1.5% | -0.1% | 1.0
CC1CC=CC2C1C(=O)N(Cc1ccccc1)C2c1cccc([N+](=O)[O-])c1 (stereo unspecified) | -7.2 | . | 10.1 | . | . | 3.4
CN(C)c1c(F)cc(C(=O)NCc2ccccc2)cc1F | 3.1 | -3.0% | -17.2 | -2.6% | 5.1% | 3.0
Cc1ccc(C(=O)N/N=C2\CCCc3ccccc32)c(C)c1 | 2.1 | -6.0% | -20.1 | -2.2% | -0.5% | 2.6
CCn1nnc(-c2ccccc2NS(=O)(=O)c2ccc(S(=O)(=O)N3CCCCCC3)cc2)n1 | -0.1 | -5.0% | 6.2 | 0.3% | -8.8% | 1.2
CCC1CCCCN1C(=O)CCS(=O)(=O)c1ccc2c(c1)CCN2C(C)=O (stereo unspecified) | . | 6.1% | -0.1 | 0.2% | ? | 0.3
O=C(CCCCn1c(=O)[nH]c2ccsc2c1=O)NCCc1ccccc1 | 3.7 | -2.1% | -3.6 | . | 7.1% | -0.9
Cn1c(CN2CCCCC2)nc2cc(NC(=O)c3ccc(F)cc3)ccc21 | -2.2 | -9.9% | -1.5 | -1.9% | 13.7% | -0.7
CC(=O)c1cccc(OCC(O)CN2CCN(C(=O)c3ccco3)CC2)c1 (stereo unspecified) | -4.9 | 10.1% | -4.2 | . | 4.2% | -0.6
Cc1c(OC(C)C(=O)N[C@@H](Cc2ccccc2)C(=O)O)ccc2c3c(c(=O)oc12)CCCC3 (stereo partly specified) | 0.8 | -8.9% | . | 4.3% | . | .
Nc1c(CO)nnn1-c1ccccc1 | 1.5 | 20.6% | 2.1 | 1.5% | -11.1%[15.4 µM] | -0.1
O=C(COc1ccc2ccc(=O)oc2c1)Nc1ccc(N2CCCCC2)cc1 | . | -9.1% | -9.9 | 4.2% | 32.5% | -1.3
